Source: PubChem
ClpP mod = qHTS Assay for Activators of ClpP; purified B. subtilis ClpP, FRET peptide cleavage, 20 min; Potency, µM (series often up to 57.5 µM), for inactives: at the top dose activity change, negative = active; 340,000 compounds, 1.9% hits; ATP-dependent Clp protease proteolytic subunit (Bacillus subtilis (strain 168)), P80244; active = well fitted falling curve with a large enough effect; inconclusive = small, poorly fitted or top-dose-only effect; inactive = no such curve, though single readings can be large or run the other way; note: potency is the fitted concentration of half-maximal effect; the source files actives as falling curves though it sought activators and does not explain the sign; nearly all actives have a fitted effect of over 65% in size; many hits overshoot -100%
Target sequence (P80244 whole entry, looked up): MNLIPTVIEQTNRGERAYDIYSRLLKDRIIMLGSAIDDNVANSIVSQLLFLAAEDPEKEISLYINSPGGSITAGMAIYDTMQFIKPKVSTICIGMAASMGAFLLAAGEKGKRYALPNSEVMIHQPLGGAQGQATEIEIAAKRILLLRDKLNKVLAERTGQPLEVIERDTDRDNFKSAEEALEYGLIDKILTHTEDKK
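FRET quenching reversal measured ClpP activation: 10 microg/mL B. subtilis ClpP at pH 8 with the FRET-FV decapeptide, read at 430 nm after 320 nm excitation. The 20-min minus 0-min signal was scaled between DMSO/no-enzyme wells and ADEP (5.8 microM final).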
Sfp PPTase inh = blocks B. subtilis Sfp PPTase activity; Biochemical Sfp PPTase activity, qHTS; Potency, µM, without a hit: max response, negative = inhibition, hits mostly inhibitors; 310,000 compounds, 3.5% hits; Q9F4F7; active = well fitted inhibition curve with a large enough effect; inconclusive = small, poorly fitted or top-dose-only effect, or another doubt; inactive = no such curve, though single readings can be large or run the other way;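 note: the enzyme is Sfp with the accession as filed and its product quenches rhodamine fluorescence; potency is the fitted concentration of half-maximal effect; 0% = enzyme reaction without inhibitor and -100% = no enzyme wells; top concentration of the series not given in the record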
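Reaction rates are the 30-min fluorescence difference (ex 525, em 598 nm) in wells containing 15 nM Sfp, 5 uM rhodamine-CoA and 12.5 uM BHQ-2-YbbR at pH 7.6 with 10 mM MgCl2.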
TRPML1 ag = activates the human TRPML1 channel. 410,000 compounds, 0.12% hits. Q9GZU1. TRPML1-expressing cells, Ca2+ dye fluorescence, FDSS; host cell line not named in the record; reference of the full effect not given here. AID 624414. activation, % (test concentration not listed); in the data active = activation above about 50%; inconclusive = about 30% to 50%; inactive = below about 30%; note: 0% is about no effect; the text of the record puts the active cut at 80%
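TRPML1-DL cells, Tet-induced overnight (~16 h, 37 degrees C), loaded 45-90 min at room temperature with Ca8 no-wash calcium dye plus quencher. FDSS fluorescence: 10 s baseline, compound pin-transfer, 110 s agonist read, then EC80 54-4 (4uM final) and 110 s antagonist read.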
TRPV1 PAM = potentiators of human vanilloid receptor 1 (TRPV1); 320,000 compounds, 0.02% hits; potentiation, % at 8.33 µM; TRPV1-expressing cells, Fluo-8 calcium influx, capsaicin EC20 potentiation; host cell line not named in the record; control for the full effect not named in the record; Q8NER1; active means potentiation above 80%; inconclusive means 30% to 80%; inactive means below 30%; note: 0% is about no effect
Target sequence (Q8NER1 whole entry, looked up): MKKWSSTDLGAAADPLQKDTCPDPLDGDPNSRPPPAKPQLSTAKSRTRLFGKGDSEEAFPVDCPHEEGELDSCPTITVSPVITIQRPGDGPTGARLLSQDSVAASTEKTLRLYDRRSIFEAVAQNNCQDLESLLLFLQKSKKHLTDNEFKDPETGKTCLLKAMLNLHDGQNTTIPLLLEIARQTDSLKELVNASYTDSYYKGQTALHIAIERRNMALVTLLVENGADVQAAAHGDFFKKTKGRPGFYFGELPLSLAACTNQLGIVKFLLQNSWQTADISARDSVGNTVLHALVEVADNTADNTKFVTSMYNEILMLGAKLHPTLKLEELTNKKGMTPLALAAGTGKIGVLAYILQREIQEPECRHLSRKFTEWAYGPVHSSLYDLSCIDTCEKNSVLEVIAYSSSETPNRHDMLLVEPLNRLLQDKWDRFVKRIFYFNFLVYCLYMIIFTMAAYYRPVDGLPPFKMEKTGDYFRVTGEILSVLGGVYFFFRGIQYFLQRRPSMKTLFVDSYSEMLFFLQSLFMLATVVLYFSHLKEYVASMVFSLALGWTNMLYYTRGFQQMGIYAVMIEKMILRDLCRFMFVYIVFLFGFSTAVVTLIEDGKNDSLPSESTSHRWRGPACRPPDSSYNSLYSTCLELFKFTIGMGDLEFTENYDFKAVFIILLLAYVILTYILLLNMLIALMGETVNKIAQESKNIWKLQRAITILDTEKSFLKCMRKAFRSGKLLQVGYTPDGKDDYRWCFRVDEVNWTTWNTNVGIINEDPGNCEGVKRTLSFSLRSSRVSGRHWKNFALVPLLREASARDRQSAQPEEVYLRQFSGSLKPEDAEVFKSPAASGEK
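TRPV1-expressing cells were cultured overnight at 35.5C and loaded with Fluo-8 calcium dye for 40 to 90 min at room temperature. After a 10 s baseline, compound was added and calcium influx was read kinetically for 3 min (ex 480/em 520 nm).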
Menin MLL FP FL = displaces fluorescein MLL peptide from human menin; Fluorescence polarization, fluorescein-MLL peptide displacement from menin; 290,000 tested, under 10 active; FP activity change, % at 61.4 µM; inconclusive = falling polarisation curve, or a change in total fluorescence; inactive = total fluorescence flat and polarisation flat or rising; no compound was filed as active; the % refers to the polarisation; negative = inhibition;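 note: % of control where 0% means no effect; inhibitors lower the polarisation; unlabelled MLL peptide was the positive control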
TRPML1 inh = inhibitors of human TRPML1 channel; TRPML1-inducible cells, Ca2+ dye fluorescence, FDSS; active compounds read low; inhibition of EC80 agonist-evoked calcium signal; activity change, negative = inhibition, % (concentration not given with the values); 390,000 compounds, 0.02% hits; in the data active means activity change below about -50%; inconclusive means about -30% to -50%; inactive means above about -30%;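 note: stimulus is agonist 54-4 at its EC80 concentration; % is set by controls: 0 for no effect and ±100 for the full control effect; the text of the record puts the active cut at -80%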
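Tet-induced TRPML1-DL cells loaded with Ca8 no-wash calcium dye were read kinetically on FDSS. Compound addition was followed by EC80 agonist 54-4 (4 uM final); inhibition was read over 110 s.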
PINK1 expr mod = modulators of PINK1 expression; PINK1 immunofluorescence, high-content cytometry, 24 h; Potency, µM (series often up to 76.6 µM), without a hit: at the highest dose activation (PINK1 increase), usual class: activators; 410,000 compounds, 0.2% hits; active = well fitted activation curve with a large enough effect; inconclusive = small, poorly fitted or top-dose-only effect; inactive = flat fitted curve, though single readings scatter; cell line not stated here;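 note: potency is the fitted concentration of half-maximal effect; % of control where 0% means no effect; nearly all actives have a fitted effect of over 65% in size; a mitochondrial uncoupler was the plate control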
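Cells are seeded, rested 12 hours, then given compound at five concentrations or DMSO for 24 hours. After fixation, blocking and antibody staining, PINK1 amount and mitochondrial localization are scored; CCCP serves as control.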
* hit, by the source's call; ? = inconclusive; · = not tested or not shown; & = joins results of further samples; ! = repeats disagree; [ ] = remark or other dose. Random draw from the library. About 4.4% of those tested had a hit in this group.

SMILES	ClpP mod	Sfp PPTase inh	TRPML1 ag	TRPV1 PAM	Menin MLL FP FL	TRPML1 inh	PINK1 expr mod
COc1cccc(SCc2noc(C(=O)NCCC(C)C)c2C(=O)NCCC(C)C)c1	2.5%	·	3.5	·	·	-4	13%
CCCNc1c(NS(=O)(=O)c2ccc3c(c2)CCCC3)c(=O)oc2ccccc12	·	20%	1.5	-25	·	16	4.4%
COc1ccc(CN2CCC(N3CCC(C(=O)N4CCOCC4)CC3)CC2)c(F)c1	·	11%	-0.5	4	-5.8	-3	0.6%
Nc1cc(Cl)cc2c1-c1ccc(Cl)cc1C2O (configuration not stated)	·	·	-1.2	·	·	8	5.4%
O=C(Nc1ccc(F)cc1F)c1ccc2nc(N3CCOCC3)sc2c1	?	0%	0.8	16	0.1	2	9.6%
Cc1cc(C)nc(SCC(=O)N2CCc3ccccc32)n1	0.2%	·	-0.1	·	·	3	3.6%
Cc1ncoc1C(=O)N1CCCC(CCC(=O)NCc2ccc(F)c(F)c2)C1 (configuration not stated)	·	13%	0.1	2	3.4	11	3.7%
CCC(C)[C@H](N)c1nnc(SCC(=O)Nc2ccc(C)cc2C)o1 (some centres not stated)	-1.8%	-17%	0.8	-3	3.1	?	1.0%
Cc1ccc(CSc2nnc(-c3ccncc3)n2CC2CCCO2)cc1 (configuration not stated)	-2.5%	7%	1.6	-4	0.2	-16	-3.6%
O=S(=O)(Nc1ccccc1)c1ccc2c(c1)CCO2	·	36%[activator]	0.4	-3	4.7	14	-0.4%
COc1ccc(OC)c(NC(=O)CCn2cnnn2)c1	-0.7%	·	0.5	·	·	-7	-2.4%
CN1CCN(C(=O)/C(=C/c2ccccc2)c2ccccc2)CC1	-1.3%	-8%	0.4	0	0.5	-16	3.4%[38.3 µM]
Cc1ccc(-c2ccc(CCC(=O)O)n2-c2ccc(C)c(Cl)c2)cc1	-8.7%	·	0.2	·	·	5	2.3%
c1csc(-c2noc(COc3ccc4c(c3)CCCC4)n2)c1	1.0%	45µM*	2.9	-5	0.9	16	-0.5%[38.3 µM]
COc1ccc(NC(=O)CSc2ncnc3[nH]ncc23)cc1	-1.6%	12%	·	·	1.8	·	4.5%
S=C(N/N=C/c1ccc(Br)cc1)N1CCCCC1	·	12%	1.3	-24	1.0	-4	1.9%
Cc1ccc2oc(=O)c3cnn(CC(=O)NC4CCCCC4C)c3c2c1 (configuration not stated)	-3.8%	-3%	0.0	-11	0.0	14	-0.2%
CCOC(=O)N1CCN(C(=O)/C=C/c2ccc3c(c2)OCO3)CC1	-6.9%	7%	-0.9	-7	1.3	6	-0.9%
CC(=O)Nc1ccc(C(=O)OCCCOC(=O)c2ccc(NC(C)=O)cc2)cc1	1.2%	-2%	0.4	-9	·	-7	-1.6%
CC(C)(C)OC(=O)N/N=C/c1cn(-c2ccccc2)nc1-c1cccnc1	-0.4%	3%	2.0	-6	-1.4	19	0.1%
COc1ccc(S(=O)(=O)NCC(c2ccc3c(c2)OCO3)N2CCN(C)CC2)cc1OC (configuration not stated)	-1.9%	·	0.5	8	·	-16	-0.6%
O=C(Nc1ccc(N2CCN(C(=O)c3ccccc3)CC2)cc1)c1cc([N+](=O)[O-])ccc1N1CCOCC1	0.8%	9%	-0.2	10	·	-3	-0.3%
CN(c1ccc(Cl)cc1)c1cc(=O)n(C)c2ccccc12	-2.1%	-13%	-0.4	1	0.7	13	5.5%
CCc1ccc(N(CC)C(=O)c2sc3nc4n(c(=O)c3c2C)CCCC4)cc1	0.8%	·	-0.2	·	·	-3	1.0%
CCCCNC(=O)c1ccccc1NC(=O)c1ccc2c(c1)OCO2	-2.0%	2%	-0.2	-5	1.4	-15	3.7%
O=C(CSc1nc(O)cc(=O)[nH]1)C1CC1	-1.7%	71µM*	-0.4	1	1.7	7	3.4%
c1ccc(Cn2nnc(CNc3ccccc3)c2-c2c(CNc3ccccc3)nnn2Cc2ccccc2)cc1	-3.1%	15%	0.7	-3	2.5	3	1.6%
O=S(=O)(c1ccc(Cl)cc1)N1CCN(c2ccc(N3CCOCC3)nn2)CC1	-12%	10%	-0.8	10	-0.3	-11	7.8%
CN1CCc2c(sc3c2C(=O)NC(/C=C/c2ccco2)N3)C1 (configuration not stated)	-25%	·	-0.5	·	·	8	1.3%[38.3 µM]
Cc1nn(-c2ccccc2)c(OC(=O)c2cccs2)c1S(=O)(=O)c1ccc([N+](=O)[O-])cc1	-0.1%	17%	-0.2	0	0.3	34	7.0%[38.3 µM]

Compounds listed so far with fluorine (3):
SMILES	ClpP mod	Sfp PPTase inh	TRPML1 ag	TRPV1 PAM	Menin MLL FP FL	TRPML1 inh	PINK1 expr mod
COc1ccc(CN2CCC(N3CCC(C(=O)N4CCOCC4)CC3)CC2)c(F)c1	·	11%	-0.5	4	-5.8	-3	0.6%
O=C(Nc1ccc(F)cc1F)c1ccc2nc(N3CCOCC3)sc2c1	?	0%	0.8	16	0.1	2	9.6%
Cc1ncoc1C(=O)N1CCCC(CCC(=O)NCc2ccc(F)c(F)c2)C1 (configuration not stated)	·	13%	0.1	2	3.4	11	3.7%

One compound at a time (already shown). Screens in order: ClpP mod	Sfp PPTase inh	TRPML1 ag	TRPV1 PAM	Menin MLL FP FL	TRPML1 inh	PINK1 expr mod
`CN(c1ccc(Cl)cc1)c1cc(=O)n(C)c2ccccc12` is entered as -2.1%	-13%	-0.4	1	0.7	13	5.5%
`Cc1nn(-c2ccccc2)c(OC(=O)c2cccs2)c1S(=O)(=O)c1ccc([N+](=O)[O-])cc1` is entered as -0.1%	17%	-0.2	0	0.3	34	7.0%[38.3 µM]

(next part)
SMILES	ClpP mod	Sfp PPTase inh	TRPML1 ag	TRPV1 PAM	Menin MLL FP FL	TRPML1 inh	PINK1 expr mod
CCCCc1ccc(NC(=S)N2CCCC(C)C2)cc1 (configuration not stated)	·	-4%	1.2	-19	3.8	45	2.2%
CN(C)c1ccc(/C=N/NC(=O)c2nnn(-c3nonc3N)c2COc2ccc(F)cc2)cc1	0.4%	-2%	-0.2	21	-1.0	7	4.6%
CCCN1CCN(CCCNC(=O)Cn2nc(-c3ccc(Cl)cc3)ccc2=O)CC1	-25%	10%	0.8	25	1.5	10	-2.0%
CC1(C(=O)NS(=O)(=O)c2ccc(C#N)cc2)CCN1C(=O)CC1CC1 (configuration not stated)	0.4%	·	-0.5	·	·	·	0.2%
Cc1ccc(NC(=O)CSC(C)C(=O)OCc2cc(=O)oc3cc(O)ccc23)cc1 (configuration not stated)	4.3%	·	-0.7	·	·	-9	2.2%
O=C(CSc1nnc(Cc2cccs2)n1-c1ccccc1)NC1CCCCC1	-0.7%	9%	-1.3	-16	-6.8	7	-1.2%
COCc1c(Br)c(C)[nH]c(=O)c1C#N	14µM*	12%	0.9	-4	1.9	-2	0.9%
CCCOc1ccc(C(=O)Nc2cc3c(cc2N2CCOCC2)n(C)c(=O)n3C)cc1	1.1%	·	0.1	·	·	3	0.2%
O=C(CNC(=O)C1CCCCC1)Nc1ccccc1Cl	?	7%	0.7	0	4.4	4	-0.1%
Cc1ccn2cc(-c3cccc(NS(C)(=O)=O)c3)nc2c1	·	-10%	1.6	-2	-0.4	17	-1.6%
N/C(=N\OC(=O)c1ccc(Br)o1)c1cccnc1	·	-1%	0.5	-4	-0.6	18	2.0%
C/C(=N/NC(=O)c1ccco1)c1cccnc1	-3.4%	15%	0.3	9	-2.8	20	-0.7%
O=C1/C(=C/c2cccs2)CCc2ccccc21	-1.1%	-11%	0.2	7	3.4	-16	1.9%
CCCCN(C)C(=O)CCC(=O)NNc1nc2ccccc2c2nc(C)nn12	25µM*!	0%	-0.3&0.3	4	0.3	-13&3	3.5%&-0.1%
COc1ccc(OCc2nc3ccccc3n2Cc2ccccc2Cl)cc1	-0.4%	·	4.3	·	·	47	3.8%
CSc1nc2ccc(NC(=O)c3nn(C(C)C)c(=O)c4ccccc34)cc2s1	-1.0%	-2%	1.0	-9	3.4	2	7.1%
CCc1noc(-c2ccc(N3CCC(C)CC3)c([N+](=O)[O-])c2)n1	-0.4%	·	-0.1	·	·	73	0.9%
Nc1nc2c(nc(Br)n2C2OC(CO)C(O)C2O)c(=O)[nH]1 (configuration not stated)	·	3%	·	·	0.0	·	0.5%
Cc1ccccc1Cn1c(=O)n(CCCCC(=O)NCc2ccc3c(c2)OCO3)c(=O)c2ccccc21	-7.1%	·	0.4	·	·	5	5.4%
O=C(CSc1nc2ccccc2o1)NCc1ccc2c(c1)OCO2	-0.2%	2%	1.1	3	-1.3	0	-0.8%
CCc1nc(-c2cc(S(=O)(=O)N3CCN(c4ccc(OC)cc4)CC3)ccc2OC)no1	0.7%	·	0.2	·	·	8	0.7%
NC(=O)C1CCCN(C(=O)c2ccc3c(c2)NC(=O)CS3)C1 (configuration not stated)	0.6%	·	-0.8	-2	·	7	-0.3%
COCC(=O)N1CCC(n2nccc2NC(=O)c2ccccc2OC)CC1	1.4%	9%	-0.1	?	·	-5	0.7%
COc1ccc(-n2c(SCC(N)=O)nc3sc4c(c3c2=O)CCC4)cc1	1.0%	5%	-0.2	-10	1.4	-6	14%
O=C(c1ccncc1)N1CCC2(CCCN(c3ccccn3)C2)CC1	·	4%	·	·	-0.2	·	-0.5%
Cc1cc(=O)oc2c(C)c(OC(C)C(=O)NCCN3CCOCC3)ccc12 (configuration not stated)	·	23%	-0.4	-15	·	30	1.2%
Cc1cnc(C(=O)NCCc2ccc(C(F)(F)F)cc2)cn1	·	14%	-0.5	-25	3.7	-1	-0.5%
Nc1nc(-c2ccccn2)nc(N)c1Cc1ccccc1F	·	6%	-0.3	-13	-1.6	4	-1.9%
CSCCC(NC(=O)c1ccccc1Cl)C(=O)NCc1ccncc1 (configuration not stated)	-0.7%	·	3.2	12	·	3	1.5%
NS(=O)(=O)c1cccc(NC(=O)COC(=O)CN2C(=O)C3CC=CCC3C2=O)c1 (configuration not stated)	·	19%	-0.1	-10	1.3	21	1.5%
CCCCN(C(=O)COc1ccc(C)cc1OC)c1c(N)n(CCC)c(=O)[nH]c1=O	1.3%	6%	0.5	-3	-0.6	3	1.5%
CCN(c1cccc(C)c1)S(=O)(=O)c1cc2c(cc1C)n(C)c(=O)c(=O)n2C	-6.4%	·	2.1	·	·	-7	3.9%
Cc1ccc(C)c(Cn2c3ccccc3c3cnn(CC(=O)NC4CCC(C)CC4)c(=O)c32)c1 (configuration not stated)	-16%	·	0.6	·	·	5	1.5%
